CBX7 AlphaScr = CBX7 inhibition, primary AlphaScreen; 1.1% of 66,000 active; O95931; AlphaScreen His6-CBX7 / biotin-H3K27me3 peptide binding; stronger effect = lower value; AID 1224903; normalised signal (fraction of DMSO) (test concentration not listed); in the data active means normalised signal below about 0.5;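 further: 100 nL library stock added to about 20 µL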
Target sequence (O95931 whole entry, looked up): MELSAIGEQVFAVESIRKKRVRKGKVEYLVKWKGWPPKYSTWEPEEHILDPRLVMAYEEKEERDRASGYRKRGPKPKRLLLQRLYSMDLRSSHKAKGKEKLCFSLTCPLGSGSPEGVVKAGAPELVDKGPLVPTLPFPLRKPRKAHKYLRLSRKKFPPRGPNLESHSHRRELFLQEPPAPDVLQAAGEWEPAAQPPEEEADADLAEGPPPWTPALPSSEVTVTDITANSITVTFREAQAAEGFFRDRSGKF
CBX7 AlphaScr z-score = further read-out of CBX7 AlphaScr, marked with its call; z-score; measured here: z-score of CBX7 signal; some inactives read as strong as hits; reference of the scale not given here;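 same signal on another scale; lower means less binding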
* hit, by the source's call; & = joins results of further samples.

The first 3 records as a preview:
SMILES | CBX7 AlphaScr | CBX7 AlphaScr z-score
O=C(Cc1ccc(Cl)cc1)N(Cc1ccccc1)c1ccccn1 | 1 | 0.28
CC1CCCCN1CCNC(=O)CN1C(=O)CCSc2ccccc21 (stereo not drawn) | 0.98 | -0.71
COc1ccc(NC(=O)Cn2cc(S(=O)(=O)c3ccc(C)cc3)c(=O)c3cc(F)ccc32)cc1 | 0.98 | -0.25

The list itself, from the start:
SMILES | CBX7 AlphaScr | CBX7 AlphaScr z-score
O=C(Cc1ccc(Cl)cc1)N(Cc1ccccc1)c1ccccn1 | 1 | 0.28
CC1CCCCN1CCNC(=O)CN1C(=O)CCSc2ccccc21 (stereo not drawn) | 0.98 | -0.71
COc1ccc(NC(=O)Cn2cc(S(=O)(=O)c3ccc(C)cc3)c(=O)c3cc(F)ccc32)cc1 | 0.98 | -0.25
CCCOC(=O)c1ccc(Nc2cc(C)nc3ccc(OC)cc23)cc1 | 1 | 0.038
CCCCCC(=O)Nc1cccc(-c2nc3ccccc3o2)c1C | 1 | 1.5
COc1cccc(-c2nc(-c3cccc(C)c3)no2)c1OC | 1.2 | 3.8
CCCCC(=O)Nc1nc(-c2ccccc2)cs1 | 1.1 | 0.19
CCCCOc1ccc(C(=O)Nc2nccs2)cc1 | 1.2 | 1.8
O=C(Nc1cc(F)ccc1F)c1cnn(-c2ccccc2)c1C1CCNCC1 | 1.1 | 1.7
CC(=O)N1CCc2cc(S(=O)(=O)NCc3ccc(C)cc3)ccc21 | 1 | -0.14
CCOc1ccc2nc(SCc3c(F)cccc3F)sc2c1 | 1 | -0.059
COc1ccc(Cl)cc1C(=O)Nc1nc2ccccc2n1C | 0.76 | -2.3

Full records, looked up by structure:
COc1cccc(-c2nc(-c3cccc(C)c3)no2)c1OC as listed: CBX7 AlphaScr: 1.2; CBX7 AlphaScr z-score: 3.8
O=C(Nc1cc(F)ccc1F)c1cnn(-c2ccccc2)c1C1CCNCC1 as listed: CBX7 AlphaScr: 1.1; CBX7 AlphaScr z-score: 1.7

Carrying on:
SMILES | CBX7 AlphaScr | CBX7 AlphaScr z-score
O=C(NCCN1CCOCC1)c1cc(Sc2ccccc2C(F)(F)F)nc2ccccc12 | 0.97 | -0.59
Cc1cc(C)c(NC(=O)Nc2ccc3c(c2)N(C)C(=O)CS3)c(C)c1 | 1.1 | 1.7
C=CCn1c(=O)c(C(=O)Nc2cccc(O)c2)c(O)c2ccccc21 | 0.8 | -2.2
Cc1ccc(-c2cc(C(=O)NCc3ccc(S(N)(=O)=O)cc3)c3ccccc3n2)cc1C | 1 | -0.025
O=C(C1CCC1)N1CCc2cc(S(=O)(=O)Nc3ccc(Br)cc3)ccc21 | 0.95 | -1.8
CCOc1ccc2nc(N3CCCC(C(=O)Nc4c(C)cccc4C)C3)sc2c1 (stereo not drawn) | 1.3 | 1.5
CN(CC(=O)Nc1nccs1)S(=O)(=O)c1ccc2c(c1)n(C)c(=O)c(=O)n2C | 1.2 | 2.1
O=c1c2ccccc2c2ccccc2c(=O)n1-c1ccc(-c2nc3ccccc3o2)cc1 | 0.98 | -0.43
CCCCN(CC)C(=O)c1cc2c(-c3ccccc3F)nn(C)c2s1 | 1 | 0.1
O=C(C1CCC1)N1CCc2cc(S(=O)(=O)NCCCN3CCN(Cc4ccccc4)CC3)ccc21 | 1 | 0.038
Cc1nc(-c2ccc(NS(=O)(=O)c3ccc(Cl)cc3)cc2)cs1 | 1 | 0.05
CCCCNC(=O)c1cc2c(-c3ccc(OC)c(OC)c3)nn(C)c2s1 | 1.1 | 2.1
CCOc1ccc(-n2nc(C(=O)Nc3nc4ccc(OC)cc4s3)c3ccccc3c2=O)cc1 | 0.99 | -0.4
CC1CCN(c2nc(-c3ccccc3O)nc3ccccc23)CC1 | 1 | 0.14
O=C(NCc1ccc(F)cc1)c1ccc(Cl)c(NC2=NC3CS(=O)(=O)CC3S2)c1 (stereo not drawn) | 1 | 0.034
O=C1c2ccccc2C(=O)N1C1C(=O)N(c2ccc(Br)cc2)C1c1ccc(F)cc1 (stereo not drawn) | 0.93 | -1.5
O=C1C(Oc2ccc(Cl)cc2)C(c2ccc3c(c2)OCO3)N1c1cccc(C(F)(F)F)c1 (stereo not drawn) | 1.1 | 0.92
CCOc1ccc(CN2C(=O)c3ccccc3Sc3ccc(C(=O)NCc4ccccc4)cc32)cc1 | 0.85 | -0.65
C=CCNC(=O)c1cc(-c2cccnc2)nc2ccccc12 | 0.95 | -1.1
COc1ccc(OC)c(NC(=O)CCNS(=O)(=O)c2ccc3c(c2)CCN3C(C)=O)c1 | 1 | 1.2
Cc1nn(CC(=O)NCCc2c(C)[nH]c3ccc(OCc4ccccc4)cc23)c(C)c1Cl | 0.48* | -7.5*
CC(NC(=O)c1ccc2c(c1)N(Cc1ccc(Cl)cc1)C(=O)CS2)c1ccccc1 (stereo not drawn) | 1.1 | 2.9
COc1ccccc1OCc1nc(-c2ccc(C)cc2)no1 | 1.5 | 2.1
Cc1ccccc1-c1nc2cc(NC(=O)Cc3ccccc3)ccc2o1 | 1.2 | 1.4
CCCCCn1c(CCCNC(=O)c2ccc(OC)c(OC)c2)nc2ccccc21 | 1.1 | 1.3
O=C(CSc1nnc(CNC(=O)c2cccs2)o1)NCc1ccc2c(c1)OCO2 | 0.98 | -0.48
N#Cc1ccc(NC(=O)c2cc(-c3ccc(Br)cc3)on2)cc1 | 0.98 | -0.46
O=C(NC1(C(=O)Nc2ccccc2)CCCCC1)c1ccc2ccccc2n1 | 0.97 | -0.35
O=C(CN1C(=O)COc2ccccc21)NCCN1CCC(Cc2ccccc2)CC1 | 1.1 | 2.3
COc1ccc(-c2noc(-c3ccc(C)cc3Cl)n2)cc1OC | 1 | 0.3
Cc1ccc(-c2nc(C(=O)NCCCN3CCN(c4cc(C)ccc4C)CC3)c(C)o2)cc1 | 0.82 | -2
Cc1ccc(S(=O)(=O)CCc2nnc(NC(=O)c3cccs3)s2)cc1C | 1 | 0.45
COc1ccc(OC)c(-c2cc(C(=O)NCCN3CCOCC3)no2)c1 | 1 | 0.35
CC1CCN(C(=O)c2nn3c(C(F)(F)F)cc(-c4ccco4)nc3c2Cl)CC1 | 1.1 | 0.76
CC(=O)N1CCc2cc(S(=O)(=O)NC(Cc3ccccc3)C(=O)Nc3ccc(C)cc3C)ccc21 (stereo not drawn) | 0.89 | -2.1
O=C(c1c[nH]c2ccc(S(=O)(=O)N3CCC4(CC3)OCCO4)cc2c1=O)N1CCOCC1 | 1.2 | 2.9
O=C(O)C1(c2ccccc2)C[C@@H](CN2CCCC2)Oc2ccccc21 (stereo partly drawn) | 1.1 | 0.33
Cc1ccsc1CCNc1ccc2nnc(-c3ccc(F)cc3)n2n1 | 1 | 0.5
CC(=O)Nc1nonc1-n1nnc(C(=O)NCc2ccccc2)c1C | 1 | 0.091
CC(=O)NC1(C(=O)Nc2cccc(Cl)c2)CCCCC1 | 1 | 0.97
COc1cc2c(C(=O)Nc3ccc(Br)cc3C)cn(C)c(=O)c2cc1OC | 1 | 1.2
Cc1ccc(Cn2nnc3c(=O)n(CC(=O)Nc4ccc(C(F)(F)F)cc4)cnc32)cc1 | 0.98 | -0.39
COc1ccc(NC(=O)C(=O)NCC(C)O)cc1 (stereo not drawn) | 1.1 | 1.8
COc1ccccc1Nc1ncc(C(=O)NCCCN2CCN(C)CC2)c2ccccc12 | 1.4 | 2.9
Cc1ccc(N2CCN(c3ccc4nnc(C)n4n3)CC2)c(C)c1 | 0.99 | -0.21
CCN(CC)CCNC(=O)CS(=O)(=O)Cc1nc(-c2ccc(OC)cc2)oc1C | 1 | 0.0045
O=C(O)CCc1ccc(-c2cccs2)n1-c1ccc(Cl)cc1 | 0.95 | -1.4
COc1ccc(C)cc1NC(=O)C1CCN(S(=O)(=O)c2cccs2)CC1 | 0.87 | -0.13

Quoted at random: six entries already listed
SMILES | CBX7 AlphaScr | CBX7 AlphaScr z-score
COc1ccc(-c2noc(-c3ccc(C)cc3Cl)n2)cc1OC | 1 | 0.3
COc1ccc(NC(=O)C(=O)NCC(C)O)cc1 (stereo not drawn) | 1.1 | 1.8
COc1ccc(NC(=O)Cn2cc(S(=O)(=O)c3ccc(C)cc3)c(=O)c3cc(F)ccc32)cc1 | 0.98 | -0.25
CCCOC(=O)c1ccc(Nc2cc(C)nc3ccc(OC)cc23)cc1 | 1 | 0.038
O=c1c2ccccc2c2ccccc2c(=O)n1-c1ccc(-c2nc3ccccc3o2)cc1 | 0.98 | -0.43
CC(=O)N1CCc2cc(S(=O)(=O)NCc3ccc(C)cc3)ccc21 | 1 | -0.14

Next part.
SMILES | CBX7 AlphaScr | CBX7 AlphaScr z-score
CCCSCCCNC(=O)CN1C(=O)CSc2ccc(S(=O)(=O)N(CC)CC)cc21 | 1 | 0.61
O=C(CSc1nnc(Cc2cc(=O)[nH]c(=O)[nH]2)n1-c1ccc(F)cc1)N1CCCCC1 | 1 | -0.011
COc1ccc(Br)cc1CN1C(=O)c2ccccc2C1C(=O)NC1CCC(C)CC1 (stereo not drawn) | 1 | 0.5
CC(CCc1ccccc1)NC(=O)c1ccc2c(c1)NC(=O)C1CCCN21 (stereo not drawn) | 0.91 | -0.38
CCCCCc1ccc(-c2ccc(-c3nc(-c4ccncc4)no3)cc2)cc1 | 1.2 | 3.7
O=C1C(c2ccc(F)cc2)N(CCc2ccc(Cl)cc2)C(=O)CN1C1CCCCC1 (stereo not drawn) | 0.94 | -0.47
CC1CC(C)CN(CCCNC(=O)CNC(=O)Cn2ccc3ccccc3c2=O)C1 (stereo not drawn) | 1 | 0.38
CN(C(=O)Cn1ncc2c1-c1ccccc1OC2)c1cccc(Cl)c1 | 0.98 | -0.52
CC(C)c1ccc(-c2csc(NC(=O)c3ccccc3Cl)n2)cc1 | 1 | 0.24
Cc1cc(NC(=O)CSCc2nc(-c3cccc(F)c3)oc2C)no1 | 0.99 | -0.17
Nc1ccc2nc(SCC(=O)Nc3ccc(F)cc3)sc2c1 | 1 | 0.82
CCCCCCOc1ccc(C(=O)Nc2nccs2)cc1 | 0.98 | -0.018
CCOc1ccc(NC(=O)CCC(=O)Nc2ccc3nc(N4CCCCC4)cc(C)c3c2)cc1 | 0.97 | -0.56
COc1ccc(C2CC(C(F)(F)F)n3nc(C(=O)Nc4cc(C)ccc4O)cc3N2)cc1 (stereo not drawn) | 0.95 | -1.1
CN1CCN(CCCNC(=O)c2cc(=O)[nH]c3ccc(S(=O)(=O)N4CCCCCC4)cc23)CC1 | 1.1 | 2.8
CC1CN(c2c3c(c(C#N)c4nc5ccccc5n24)CCC3)CC(C)O1 (stereo not drawn) | 1.1 | 1.9
Cc1sc2ncn(CC(=O)NCC(=O)NCc3ccc(F)cc3)c(=O)c2c1C | 1.2 | 1.7
COc1cccc(CNC(=O)C2CCN(S(=O)(=O)c3c(C)noc3/C=C/c3cccs3)CC2)c1 | 1 | 0.02
COc1ccc(CCN2C(=O)C(Oc3ccccc3C)C2c2ccc3c(c2)OCO3)cc1OC (stereo not drawn) | 0.81 | -2.4
O=C(Nc1ccc2oc(-c3cccnc3)nc2c1)c1ccc(OCc2ccccc2)cc1 | 1.2 | 2.7
COc1ccc2c(C)nc(Nc3nc(-c4ccccc4)cc(=O)[nH]3)nc2c1 | 1.1 | 0.65
Cc1ccccc1Nc1c(-c2ccc(N3CCOCC3)cc2)nc2cccc(C)n12 | 0.84 | -1.6
CCOc1cc2c(cc1OCC)C(c1ccc(O)c(OC)c1)NCC2 (stereo not drawn) | 1 | 0.2
COc1ccc(N2CCC(CNC(=O)Nc3ccccc3)C2)cc1 (stereo not drawn) | 0.77 | -9.4
COc1ccc(-n2nc(C(=O)NCC(=O)Nc3ccc(OC)c(Cl)c3)c3ccccc3c2=O)cc1 | 1 | 0.8
Cc1ccc(-c2nc(S(=O)(=O)c3ccccc3)c(NCc3ccco3)o2)cc1 | 1.1&1 | 2.5&0.025
CCOc1ccc2nc(NC(=O)c3ccn(C)n3)sc2c1 | 0.99 | -0.17
CCc1c(C)c(C#N)c2nc3ccccc3n2c1Nc1ccc(F)cc1 | 1 | 0.0075
Clc1ccc(-c2nc(-c3ccccc3)no2)c(Cl)c1 | 1.8 | 0.94
CCc1cccc(NC(=O)c2cc3sccc3n2Cc2ccc(F)cc2)c1 | 1.2 | 4.7
CCC1Oc2ccc(C)cc2N(CC(=O)NCCN2CCCCCC2)C1=O (stereo not drawn) | 1 | 0.99
Cc1cc(N2CCN(C)CC2)nc2ccc(NC(=O)CCC(=O)Nc3ccc(C(C)C)cc3)cc12 | 1.1 | 1.8
CCN1CCN(c2cc(C)c3cc(NC(=O)COc4cccc(C)c4)ccc3n2)CC1 | 1 | 0.053
CCn1c(C(=O)N2CCC(C(=O)NC3CCCCCC3)CC2)cc2sccc21 | 0.99 | -0.061
Cc1ccc(Cl)cc1N1CCN(CCCNC(=O)Nc2ccccc2C(F)(F)F)CC1 | 1.4 | 4.1
Cc1ccccc1-c1nc(CN2CCC(C(=O)NC3CCCCCC3)CC2)c(C)o1 | 1 | 0.3
Cc1ccc(Nc2nc(-c3ccc(Cl)cc3)nc3ccccc23)c(C)c1 | 1.1 | 0.91
CCc1ccc(-c2nnc(-c3ccc(Cl)cc3)s2)cc1 | 1.1 | 3.3
Cn1c(CNc2ccc(Cl)cc2)nc2ccccc21 | 0.94 | -0.92
O=C(Cc1ccccc1)Nc1c(-c2ccc(F)cc2)nc2ccccn12 | 0.97 | -0.52
O=C(Nc1ccccc1C(F)(F)F)c1cc(-c2ccc3c(c2)OCO3)on1 | 1.2 | 2.3
CCN1CCN(c2cc(C)c3cc(NC(=O)c4ccc(OC)cc4)ccc3n2)CC1 | 1.1 | 0.57
Cc1cccc(N2CCN(C(=O)c3ccc4c(c3)NC(=O)c3ccccc3N4)CC2C)c1 (stereo not drawn) | 0.56 | -3.5
O=C1CCc2cc(S(=O)(=O)NC(C(=O)Nc3ccc(F)cc3)c3ccccc3)ccc2N1 (stereo not drawn) | 1 | 0.14
CCCCOc1ccc(C(=O)Nc2cccc(C)n2)cc1 | 1.3 | 6.4
Cc1ccc2c(c1)NC(=O)C(CC(=O)NCCCN1C(C)CCCC1C)O2 (stereo not drawn) | 1 | 0.48

Screening results deposited in PubChem BioAssay by several laboratories.

Only part of the results is shown; the hit share may differ from the screen's.
